# HNF4A DNA FP: change in binding of human HNF4A to DNA, primary screen, biochemical, fluorescence polarization, FITC-DNA; AID 1224865, 2016; 360,000 compounds, 0.3% hits; activity change, % at 10 µM; 1 h; in the data active means activity change above about 30%, passing the limit was not always enough;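 further: controls were the assay level and a saturating level of protein; the project sought stronger binding though the title names inhibitors; some compounds called inactive have numbers as strong as hits; positive values seem to mean higher polarization but the record does not say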
# Target sequence (P41235 whole entry, looked up): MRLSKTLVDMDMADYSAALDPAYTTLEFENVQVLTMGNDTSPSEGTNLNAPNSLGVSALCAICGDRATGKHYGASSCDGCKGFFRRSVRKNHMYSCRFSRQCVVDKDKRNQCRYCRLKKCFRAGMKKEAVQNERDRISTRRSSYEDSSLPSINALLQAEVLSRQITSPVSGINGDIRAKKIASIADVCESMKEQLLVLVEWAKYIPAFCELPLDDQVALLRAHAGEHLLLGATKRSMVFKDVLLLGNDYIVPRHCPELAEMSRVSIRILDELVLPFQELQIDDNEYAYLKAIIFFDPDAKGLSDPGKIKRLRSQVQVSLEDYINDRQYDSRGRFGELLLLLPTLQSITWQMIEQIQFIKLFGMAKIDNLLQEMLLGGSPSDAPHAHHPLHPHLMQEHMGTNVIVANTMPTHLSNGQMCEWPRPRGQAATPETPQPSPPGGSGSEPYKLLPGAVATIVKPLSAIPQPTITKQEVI
# Ecoli growth: E. coli growth inhibition, primary screen, OD600; OD600 absorbance (no concentration beside the values); Escherichia coli growth, 23 h; stronger effect = lower value; 330,000 compounds, 0.21% hits; AID 1053175, 2014;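 active means OD600 absorbance below the run mean of sample wells minus 3.6 SD, in any replicate, cut at about 0.56 in these data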;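 further: stock transfer was 300 nL into about 60 µL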
# Vif TR-FRET: inhibitors of Vif binding to APOBEC3G peptide, primary screen, biochemical, TR-FRET, GST-Vif 1-94, biotin-A3G peptide, dose response retest (AID 1117319); Virion infectivity factor (Human immunodeficiency virus type 1 group M subtype B (isolate …; TR-FRET GST-Vif / biotin-A3G peptide binding; higher % means a stronger effect; test concentration not given here; strong numbers were not always called active; inhibition, %, or IC50 in µM where a hit was titrated; 260,000 compounds, 0.57% hits;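 active means above the screen mean plus three standard deviations and confirmed in dose response; inconclusive means results disagree or hit not tested in dose response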;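 further: Vif residues 1-94 fused to GST binding biotinylated APOBEC3G peptide 110-148; 0% = full assay without inhibitor and 100% = GST in place of GST-Vif; retest series ran down from 100 µM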
# MLL AF4-AF9 inh: inhibitors of AF4 peptide binding to AF9, primary screen, biochemical, AlphaScreen, biotin-AF4 peptide, FLAG-AF9, single point. Protein AF-9 (Homo sapiens), P42568. inhibition, % at 10 µM. 350,000 compounds, 0.47% hits. AID 651704, 2012;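 active means every replicate reaching a set inhibition limit, whatever the replicate mean, cut at about 25% in these data; inconclusive means mean inhibition reaches that limit but some replicates miss it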;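 further: 0% = plate neutral control median and 100% = total signal loss; the record names both 10 and 1 µM as test concentration; the first replicate is given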
# Target sequence (P42568 whole entry, looked up): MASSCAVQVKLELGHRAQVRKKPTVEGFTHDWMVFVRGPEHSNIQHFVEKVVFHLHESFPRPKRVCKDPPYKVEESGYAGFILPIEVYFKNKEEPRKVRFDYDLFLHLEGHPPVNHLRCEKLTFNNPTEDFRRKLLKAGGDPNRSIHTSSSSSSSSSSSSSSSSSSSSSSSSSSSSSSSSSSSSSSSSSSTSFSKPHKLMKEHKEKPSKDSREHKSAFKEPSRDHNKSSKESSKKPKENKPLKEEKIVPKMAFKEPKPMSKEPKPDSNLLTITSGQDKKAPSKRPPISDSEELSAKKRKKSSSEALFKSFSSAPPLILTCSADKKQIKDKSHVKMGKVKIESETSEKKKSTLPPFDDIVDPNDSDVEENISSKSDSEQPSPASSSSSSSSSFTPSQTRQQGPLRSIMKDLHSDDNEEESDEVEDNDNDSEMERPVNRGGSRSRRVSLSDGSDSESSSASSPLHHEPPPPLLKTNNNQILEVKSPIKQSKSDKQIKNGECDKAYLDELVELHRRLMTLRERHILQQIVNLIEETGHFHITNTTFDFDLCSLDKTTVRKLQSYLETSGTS
# Ecoli rRNA inh: reduced GFP signal of wild-type E. coli, primary screen, bacterial rRNA inhibitor project, GFP/RFP fluorescence, OD600, single point; 350,000 compounds, 1.6% hits; GFP signal change (wild-type ribosome), % (no concentration beside the values); AID 720706, 2013; E. coli WT GFP vs humanized-ribosome RFP mutants, 24 h; stronger effect = lower value; DMSO median 0, no signal -100;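 active means significant combined selectivity score with lowered wild-type GFP, culture density cut under 30%, mutant RFP and density less affected; inactive means any of these conditions unmet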; further: one replicate is shown; some compounds called inactive have numbers as strong as hits
# FGF22 binding: binders of human FGF22 protein, primary screen, FGF22 synaptogenesis inhibitor project, biophysical, thermal shift, single point | recombinant FGF22 thermal shift, SYPRO orange fluorescence; percent of sucrose octasulfate shift, DMSO zero | AID 651658, 2012 | calls only at 9.99 µM | 340,000 compounds, 1.5% hits;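 active means melting point raised past a set limit in the mean and every replicate; inconclusive means no clear call; three in four hits are not shown here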
# ALR inh: inhibitors of human ALR sulfhydryl oxidase, primary screen, biochemical, H2O2 detection, HRP-luminol luminescence, single point; purified ALR, DTT oxidation; 290,000 compounds, 3.8% hits; inhibition, % (test concentration not listed);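 active means mean and each replicate at 75% or more; inconclusive means only one of the two met; inactive means neither met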;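 further: stock transfer was 7.5 nL into about 7.5 µL; 0% = neutral wells and 100% = wells with inactivated enzyme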
# Ecoli rRNA inh OD600: further read-out of Ecoli rRNA inh, marked with its call; OD600 change, %; measured here: OD600 growth;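 optical density of the mix in the first replicate; 0 = DMSO median and -100 = no signal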
# Ecoli rRNA inh RFP: further read-out of Ecoli rRNA inh, marked with its call; RFP signal change, %; measured here: RFP humanized mutant strains;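 first replicate; 0 = DMSO median and -100 = no signal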
# * hit, by the source's call; i = inactive; ? = inconclusive; / = no result given. Not all compounds are listed, so the mix of outcomes need not match the whole.
# Each structure is followed by: HNF4A DNA FP	Ecoli growth	Vif TR-FRET	MLL AF4-AF9 inh	Ecoli rRNA inh	Ecoli rRNA inh OD600	Ecoli rRNA inh RFP	FGF22 binding	ALR inh
C[C@]12CCC3C(CC[C@H]4C[C@@H](O)CC[C@]34C)C1C[C@@H](O)[C@]2(C)O (stereo partly specified)
 : 3.0	0.675	-5.3%	-1.9	-7.3	-13.9	-1.6	i	-1.8
CCCCc1nc2ccccc2c(=O)n1-c1ccccc1O
 : 1.1	0.726	-2.9%	/	/	/	/	/	8.6
CC12CCCCC1N(O)CN2O (stereo unspecified)
 : 1.7	0.807	-0.9%	/	/	/	/	/	1.2
O=c1[nH]c(=S)n(-c2ccccc2)c(O)c1/C=N/N1CCCCC1c1cccnc1 (stereo unspecified)
 : 36.1*	/	0.8%	-5.4	2.4	-3.0	-5.8	i	33.1
Clc1ccccc1CN1CCN(c2ccccc2)CC1
 : -0.2	0.675	7.8%	/	-8.1	-9.7	-0.3	/	98.7*
c1cc2c(cc1CCNC1CCCCCC1)OCO2
 : -0.3	0.74	3.6%	/	/	/	/	/	0.5
COC(=O)C1=C(c2c(C)noc2C)C[C@@H]2CC[C@H]1N2C(=O)N1CCCCC1
 : -1.4	/	/	0.9	1.9	2.2	-4.8	i	-9.0
N/C(=N\[N+](=O)[O-])N1CCN(C(=O)c2ccccn2)CC1
 : -2.7	/	0.1%	-1.6	11.9	13.2	0.2	i	-27.2
CCOC(=O)C(=O)NC1CCSC1=O (stereo unspecified)
 : -1.5	0.671	3.9%	1.0	13.1	11.0	-4.2	i	/
CCN(CC)CCCN=Cc1c(O)n(-c2cccc(C)c2C)c(=O)[nH]c1=O
 : 2.8	0.74	1.1%	/	/	/	/	/	2.6
CC(C)Cc1nnc(NC(=O)CCC(=O)N2CCC3(CC2)OCCO3)s1
 : 6.9	/	7.4%	-12.5	7.7	7.0	2.2	i	5.4
CCCNC(=O)N1[C@H]2CC[C@@H]1C(C(=O)OC)=C(c1ccc(-c3ccccc3)c(F)c1)C2
 : 1.9	/	/	3.7	-27.4	-59.6	-4.4	i	-5.0
CC=C(CC)C1(CC)C(=O)NC(=S)NC1=O
 : 1.1	/	-11.4%	-6.4	-2.3	4.8	-4.5	i	/
CC1(C)C(c2ccccc2)=NC(c2cccnc2)=[N+]1[O-]
 : -0.1	0.715	?	/	/	/	/	/	-23.9
CC(CC(C)(C)N1CC1)=NO
 : -0.6	/	/	-1.8	22.9	17.5	2.4	i	/

# Two entries drawn at random from the list so far:
# Each structure is followed by: HNF4A DNA FP	Ecoli growth	Vif TR-FRET	MLL AF4-AF9 inh	Ecoli rRNA inh	Ecoli rRNA inh OD600	Ecoli rRNA inh RFP	FGF22 binding	ALR inh
N/C(=N\[N+](=O)[O-])N1CCN(C(=O)c2ccccn2)CC1
 : -2.7	/	0.1%	-1.6	11.9	13.2	0.2	i	-27.2
CC=C(CC)C1(CC)C(=O)NC(=S)NC1=O
 : 1.1	/	-11.4%	-6.4	-2.3	4.8	-4.5	i	/

# (continued)
# Each structure is followed by: HNF4A DNA FP	Ecoli growth	Vif TR-FRET	MLL AF4-AF9 inh	Ecoli rRNA inh	Ecoli rRNA inh OD600	Ecoli rRNA inh RFP	FGF22 binding	ALR inh
COc1ccc2ccc(O)c(CN3CC=C(c4ccccc4)CC3)c2c1
 : 0.0	0.682	/	1.0	-46.5	-63.9	12.3	i	-20.9
CCOC(=O)C1=C(C)N(C)C2(C)CC1c1ccccc1O2 (stereo unspecified)
 : 2.4	0.676	-2.5%	/	/	/	/	/	-1.2
CC1=C2C3OC(=O)C(C)C3CC[C@@]2(C)C=CC1=O (stereo partly specified)
 : 1.8	0.676	5.4%	-1.8	10.5	14.6	1.8	i	/
O=c1[nH]c(=O)n(Cc2ccccc2)c(O)c1/C=N/NCCO
 : 18.6	0.714	25.8%	-3.7	17.7	24.6	2.8	i	-14.5
O=C1NC(=O)N(Cc2ccccc2Cl)C(=O)/C1=C/N1CCOCC1
 : 37.4*	0.729	13.5%	/	/	/	/	/	-0.6
COC(=O)C12CCc3c(ccc4cc(OC)ccc34)C1=CC(=O)C2 (stereo unspecified)
 : -0.5	/	-8.1%	2.1	-6.0	-25.9	-6.0	i	/
N#CCCn1cc(C(=O)Nc2ccc(F)cc2)c(-c2ccccc2)n1
 : -0.7	0.682	/	-5.6	5.0	9.5	0.7	i	-2.3
CC1CN1P1(=O)OCC(C)([N+](=O)[O-])CO1 (stereo unspecified)
 : -5.0	/	1.2%	-2.0	/	/	/	i	/
COC(=O)[C@H]1[C@H](CO)[C@H]2Cn3c(ccc(-c4ccccc4F)c3=O)[C@@H]1N2
 : /	/	/	-1.1	2.4	2.0	-2.1	i	/
CC(C)c1cc(Br)c(NC(=O)Nc2cccnc2)c(Br)c1
 : -1.9	0.649	-3.8%	0.0	-2.8	-7.4	0.3	i	-3.5
Cc1cc(=O)[nH]c(CCl)n1
 : 0.8	0.668	-5.6%	0.4	14.2	11.4	-1.5	/	-7.3
CN(Cc1ccccc1)C(=C(Cl)Cl)/C(=C1/NCCN1Cc1ccc(Cl)nc1)[N+](=O)[O-]
 : 1.0	0.713	-0.9%	/	/	/	/	/	65.3
C=CCn1c(O)c(C(C)=NCCCn2ccnc2)c(=O)[nH]c1=O
 : 0.4	0.626	-7.9%	-0.4	2.4	-27.4	-1.3	i	-10.1
C#C[C@@]1(O)CCC2C3CCC4=C/C(=N/OCC(=O)NC(CCC(N)=O)C(=O)O)CC[C@]4(C)C3CC[C@@]21C (stereo partly specified)
 : 2.5	/	-2.9%	1.7	2.1	16.8	-4.1	i	7.7
CN1CCN(c2nc(Cl)ncc2F)CC1
 : -2.9	0.694	21.4%	-2.8	-0.7	15.2	-1.6	i	-14.1
Cn1c(O)c(C=NC2CCCCC2)c(=O)[nH]c1=S
 : 3.3	0.724	24.2%	-0.7	2.7	1.3	-0.8	i	0.3
O=c1[nH]c2ccccc2n1C1CCN(C(c2nnnn2C2CCCCC2)C2CC2)CC1 (stereo unspecified)
 : 1.5	/	/	36.0*	-14.6	-39.1	-6.7	i	/
Cc1cc(NC(=O)CCl)no1
 : -3.6	0.604	1.5%	-3.1	15.3	-5.0	-3.4	i	-0.7
C/C(=N\NC(=S)Nc1ccccc1)c1c(O)n(C)c(=O)n(C)c1=O
 : 0.0	0.71	-5.9%	-4.8	15.9	7.6	0.4	i	91.9*
CC(Cc1ccccc1)NC(=O)/C=C/C(=O)O (stereo unspecified)
 : -2.1	0.731	11.9%	-1.7	17.5	13.8	3.0	i	2.4
CCC(C)N1C(=O)/C(=C/c2ccc3c(c2)CCN3CCCCl)C(=O)NC1=S (stereo unspecified)
 : -9.9	0.658	/	/	/	/	/	/	98.2*
CC=Cc1ccc2n(c1=O)C[C@H]1[C@H](CO)[C@@H](C(=O)O)[C@@H]2N1S(=O)(=O)c1ccccc1C (mixture of isomers)
 : /	/	/	2.2	3.8	9.5	-1.4	i	/
CP(C)(=O)CCC(=O)O
 : -2.3	0.745	11.1%	/	/	/	/	/	-12.6
COP(=O)(OC)Oc1ccc(C(O)C(Cl)(Cl)Cl)cc1 (stereo unspecified)
 : 0.4	0.736	19.8%	-1.7	7.8	1.1	0.3	i	-20.3
COc1nc(NC(C)C)nc(NC(C)C)n1
 : -1.9	0.671	1.0%	/	/	/	/	/	0.3
CCC1C2CC3C4N(C)c5ccccc5C45CC(C2C5O)N3[C@@H]1O (stereo partly specified)
 : -2.2	0.658	-6.7%	2.9	4.9	8.4	0.2	i	/
CC=Cc1ccc2n(c1=O)C[C@@H]1[C@@H](CO)[C@H](C(=O)N(C)C)[C@H]2N1C (mixture of isomers)
 : /	/	/	0.5	-1.4	-2.4	0.6	i	/
CCCS(=O)(=O)N1CCCC(C(=O)N2CCC3(CC2)OCCO3)C1 (stereo unspecified)
 : 0.2	0.706	15.3%	/	/	/	/	/	0.4
C[C@]12CCC3C(CC[C@H]4C[C@H](OC(=O)c5cccnc5)CC[C@]34C)C1CCC2=O (stereo partly specified)
 : 1.2	0.709	0.4%	3.0	-7.0	-48.8	3.9	i	1.0
COc1ccc(CNC(C)Cc2cccs2)cc1 (stereo unspecified)
 : 1.5	0.716	/	0.3	9.1	2.9	-2.5	i	/
O=C(N=Nc1c(O)[nH]c(=O)[nH]c1=O)C1COc2ccccc2O1 (stereo unspecified)
 : 0.4	0.621	10.8%	-0.8	5.6	17.5	1.7	i	-2.9
CC(=Nc1ccc2c(c1)CCC2)c1c(O)n(C)c(=O)n(C)c1=O
 : 0.5	0.7	3.5%	/	/	/	/	/	-21.2
COC(=O)C1=C(c2ccc(F)cc2OCc2ccccc2)C[C@@H]2CC[C@H]1N2C(=O)NCCc1ccc(F)cc1
 : -2.0	/	/	-7.4	7.4	5.9	7.9	i	-6.0
CCOC(=O)c1c(C)n(Cc2ccccc2)c2ccc(OCC(O)CNC(C)(C)C)cc12 (stereo unspecified)
 : 3.0	0.685	0.3%	19.4	-29.1	-65.7	24.5	i	-42.8
CCN(CC)C(=O)c1ccc(N2C(=O)C3CC=C(Cl)CC3C2=O)cc1 (stereo unspecified)
 : 2.4	0.681	-0.1%	/	/	/	/	/	/
COc1ccc2c3c1OC1C(O)C=CC4C(C2)[N+](C)(C)CCC341 (stereo unspecified)
 : 0.4	0.675	15.9%	-5.9	22.0	19.5	4.0	i	-34.9
Fc1ccccc1N1CCN(Cc2ccc3c(c2)OCO3)CC1
 : -5.6	0.696	?	/	/	/	/	/	7.5
O=P(O)(O)Oc1ccccc1P(=O)(c1ccccc1)c1ccccc1
 : -1.5	0.654	-9.5%	-2.0	0.6	11.4	-0.4	i	-8.8
Cc1cccc2c(CCN)c[nH]c12
 : -0.3	0.71	-0.1%	11.6	12.2	-6.0	-0.2	i	-8.0
CC1(C(=O)O)CC12c1ccccc1-c1ccccc12 (stereo unspecified)
 : 0.1	/	-0.4%	-3.6	-4.7	-4.7	-5.4	i	/
C[N+]1=C(/C=C/Nc2ccccc2)C(C)(C)c2ccccc21
 : 7.4	0.666	/	/	/	/	/	/	70.6
CC(=O)O[C@]1(C)C(=O)OC/C2=C/CN(C)CCC(OC(=O)[C@@](O)(C(C)O)C[C@H]1C)C2=O (stereo partly specified)
 : 4.0	0.678	-2.6%	1.4	9.5	11.9	-2.1	i	0.0
COc1c(C)cc(C(=O)C2CCCN(Cc3cnc(C)s3)C2)cc1C (stereo unspecified)
 : -2.7	0.716	-5.1%	4.1	-0.2	4.0	11.0	i	-9.9
COC(=O)C1=C(c2cccc(OCc3ccccc3)c2)C[C@@H]2CC[C@H]1N2C(=O)NCc1cccc(OC)c1
 : -2.2	/	/	3.5	-1.9	0.0	-5.2	i	0.1
CC(C)(C)n1cc(C(=O)c2ccc3ccccc3c2O)cn1
 : -0.1	0.663	/	4.5	3.8	9.9	-0.4	i	-14.9
C=C1C(=O)O[C@@H]2C[C@@H](C)[C@H]3C=CC(=O)[C@]3(O)C[C@@H]12
 : -3.6	/	5.5%	-3.4	22.1	23.1	6.2	i	11.6
CC(C)CN1Cc2ccccc2-n2nncc2C1
 : -0.8	/	0.7%	-2.9	/	/	/	i	/
C/C=C/CC1(CC)C(=O)NC(=S)NC1=O
 : -3.8	/	-7.5%	-3.5	1.4	11.9	3.9	i	-2.0
CCOC(=O)N1CCN(C(C)C(=O)c2c[nH]c3ccccc23)CC1 (stereo unspecified)
 : 3.1	0.624	27.6%	/	/	/	/	/	-13.8

# Screening data from PubChem BioAssay.
